PINK1 expr mod = changes PINK1 expression; 0.2% of 410,000 active; PINK1 immunofluorescence, high-content cytometry, 24 h; Potency, µM (titrated, usually from 76.6 µM), for inactives: top-dose activation (PINK1 increase), actives largely listed as activators; active = well fitted activation curve with a large enough effect; inconclusive = small, poorly fitted or top-dose-only effect; inactive = flat fitted curve, though single readings scatter; cell line not stated here;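 note: % of control where 0% means no effect; nearly all actives have a fitted effect of over 65% in size; a mitochondrial uncoupler was the plate control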
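PINK1 protein level read as immunofluorescence by microplate cytometer in a fixed, stained stable cell line after 24 h exposure to five compound concentrations, with CCCP as control.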
Active calls of the source: *. Potency is the fitted concentration of half-maximal effect.

SMILES	PINK1 expr mod
Cc1ccc(OCCCn2c(C3CC(=O)N(c4cccc(Cl)c4)C3)nc3ccccc32)c(C)c1 (stereo unspecified)	2.4%
COc1ccc(-c2cc3ccc(O)c(CN4CCCC(C)C4)c3oc2=O)cc1 (stereo unspecified)	-0.3%
CCc1cccc(NS(=O)(=O)c2ccc3c(c2)CC(C)N3C(=O)C2CC2)c1 (stereo unspecified)	-0.1%
CCc1ccc(CNC(=O)c2ccc3c(c2)N=C(C)c2cc(C)ccc2S3)cc1	4.8%
COc1ccc(C(=O)c2cn(Cc3ccccc3)c3ccccc3c2=O)cc1OC	0.6%
CCc1cccc(NC(=O)c2c(C)oc3nc(C)nc(N4CCCC4)c23)c1	4.7%
COc1ccc(S(=O)(=O)NCCS(=O)(=O)N2CCN(c3ccccc3)CC2)cc1OC	4.2%
COc1ccc(N2C(=O)CS(=O)(=O)C23C(=O)N(Cc2ccccc2)c2ccccc23)cc1 (stereo unspecified)	-4.8%
CCCCc1ccc(C(=O)Nc2ccc3nc(N(CC)CC)cc(C)c3c2)cc1	1.2%
Cc1ccc(CS(=O)(=O)c2ncc(Cl)c(C(=O)Nc3nc4ccc(F)cc4s3)n2)cc1	-0.6%
CCOc1ccc(NC(=O)Cn2c(=O)n(Cc3ccc(C(=O)NCc4ccc5c(c4)OCO5)cc3)c(=O)c3ccccc32)cc1	1.8%
CCc1ccc(N(CC)C(=O)Cn2c(=O)oc3ccccc32)cc1	-1.1%
COc1ccccc1CNC(=O)Cn1ncc2c(C)n(Cc3ccccc3Cl)c(C)c2c1=O	-0.5%
COc1ccc(NC(=O)CN2CCN(Cc3ccccc3Cl)S2(=O)=O)cc1Cl	1.0%
Cc1cc(C)cc(NC(=O)Cc2noc3ccccc23)c1	0.2%
Cc1cccc(NC(=O)CN2C(=O)c3cccc4cccc2c34)c1C	-0.3%
COC(=O)c1ccccc1NC(=O)CN1C(=O)COc2ccccc21	-1.8%
Cc1cccc(-n2c3nc(=O)n(C)c(=O)c-3cc3c(Cl)cccc32)c1C	16.7%
COc1cc(NC(=O)CSc2nc3ncccc3o2)cc(OC)c1	0.5%
CC(C)(C)C(=O)N1CCN(c2nc3c(F)cccc3s2)CC1	-1.2%

Reprinted from the part before: six entries, followed by the next part.
SMILES	PINK1 expr mod
Cc1cc(C)cc(NC(=O)Cc2noc3ccccc23)c1	0.2%
Cc1cccc(NC(=O)CN2C(=O)c3cccc4cccc2c34)c1C	-0.3%
COC(=O)c1ccccc1NC(=O)CN1C(=O)COc2ccccc21	-1.8%
Cc1cccc(-n2c3nc(=O)n(C)c(=O)c-3cc3c(Cl)cccc32)c1C	16.7%
COc1cc(NC(=O)CSc2nc3ncccc3o2)cc(OC)c1	0.5%
CC(C)(C)C(=O)N1CCN(c2nc3c(F)cccc3s2)CC1	-1.2%
COc1cccc(C(=O)c2sc(Nc3ccc(C)cc3C)c(S(=O)(=O)c3ccccc3)c2N)c1	0.6%
CC(C)NC(=O)c1cc2c(Cl)nc3ccccc3c2s1	-0.1%
COCCn1c(CNC(=O)c2cc(OC)c(OC)c(OC)c2)nc2cccnc21	-0.4%
Cc1n[nH]c(C)c1S(=O)(=O)N(CC(=O)NCc1ccccc1Cl)c1ccc(C(C)C)cc1	10.2%
COCCCNC(=O)Cn1c(=O)n(-c2cccc(C)c2)c(=O)c2c1c1cc(C)ccc1n2C	-0.2%
COc1ccc(CNC(=O)c2cc3c(=O)n(Cc4cccs4)ccc3nc2C)cc1	-0.6%
CC(=O)c1c(C)[nH]c2ccc(OCC(O)CNCCc3ccccc3)cc12 (stereo unspecified)	-0.4%
COc1cc2c(=O)c(S(=O)(=O)c3ccccc3)cn(CC(=O)Nc3ccccc3C)c2cc1OC	7.8%
CC1CCc2c(sc3nnn(Cc4ccccc4)c(=O)c23)C1 (stereo unspecified)	-0.1%
COc1ccc(Cn2c(SCc3ccc(C(=O)NCc4ccc(C)cc4)cc3)nc3cccnc32)cc1	2.8%
CC[N+](C)(C(=O)O)/C(=C\c1ccccc1)c1ccnc2ccccc12 (stereo unspecified)	0.7%
CCCCN(CC)CCNC(=O)C1CCCN(c2ncnc3onc(C)c23)C1 (stereo unspecified)	-0.8%
Cc1ccc(NC(=O)c2ccc(-n3c(C)nnc3C)cc2)cc1F	1.0%
Cc1ccc(-c2c(C)n3c4c(=O)n(C)c(=O)n(C)c4nc3n2-c2cccc(O)c2)cc1	0.4%
COc1ccccc1N1CCN(C(CNC(=O)C(=O)NCCc2ccccc2)c2cccnc2)CC1 (stereo unspecified)	2.7%
Cc1ccc(CNCc2ccccc2Cl)s1	1.9%
Cc1cc2c(cc1S(=O)(=O)C(C)CC(=O)NC1CCC(C)CC1)OCC(=O)N2 (stereo unspecified)	4.5%
NC1CCc2ccc([N+](=O)[O-])cc21 (stereo unspecified)	1.6%
O=C(Nc1c(C(=O)O)oc2ccccc12)c1ccc(C(F)(F)F)cc1	-0.7%
CCSc1nc2sc3c(c2c(=O)n1-c1ccc(C)cc1)CCCC3	-0.9%
CCOc1ccc(Cn2c(CNS(=O)(=O)c3cccc(Cl)c3)nc3cccnc32)cc1	-0.2%
COc1ccc(OC)c(NC(=O)C(C)n2c(=O)cc(C)c3c(C)nn(-c4ccccc4)c32)c1 (stereo unspecified)	-0.4%
CCCn1c2ccccc2c2cnn(CC(=O)Nc3ccccc3OC)c(=O)c21	3.1%
O=C(Cn1nc(Cc2ccncc2)c2ccccc2c1=O)Nc1cccc(C(F)(F)F)c1	3.0%
Cc1ccc(Cl)cc1NC(=O)Cn1nnc2sc3c(c2c1=O)CCC(C(C)(C)C)C3 (stereo unspecified)	-0.2%
CCN(CC)CCNC(=O)c1ccc(Cn2c(SCc3ccccc3)nc3cccnc32)cc1	0.4%
COc1ccc(OC)c2sc(N(CCCN(C)C)C(=O)c3ccco3)nc12	1.8%
COc1cc2c(cc1OC)n(CC(=O)Nc1ccc(C)cc1C)c(=O)n1nc(-c3ccccc3)nc21	0.2%
CCC(=O)N1CCc2cc(Br)cc(S(=O)(=O)N3CCC(C(=O)Nc4ccccc4CC)CC3)c21	0.6%
COc1cccc(-c2nc(S(=O)(=O)c3ccc(C)cc3)c(N3CCCCCC3)o2)c1	5.4%

In the list so far, these contain a CF3 group:
SMILES	PINK1 expr mod
O=C(Nc1c(C(=O)O)oc2ccccc12)c1ccc(C(F)(F)F)cc1	-0.7%
O=C(Cn1nc(Cc2ccncc2)c2ccccc2c1=O)Nc1cccc(C(F)(F)F)c1	3.0%

(further entries)
SMILES	PINK1 expr mod
O=C(Nc1ccccc1Br)c1cnn2c1NC(=C1CC1)C=C2C(F)F	0.9%
COc1ccc(CCNC(=O)CCc2c(C)nc3cc(-c4ccccc4OC)nn3c2C)c(OC)c1	0.1%
Oc1c(C(c2ccc(Cl)cc2)N2CCCC2)sc2nc(-c3ccco3)nn12 (stereo unspecified)	2.5%
COc1ccc(C2c3cc(OC)c(OC)cc3CC(=O)N2c2ccc(C)c(F)c2)cc1 (stereo unspecified)	3.1%
Cc1cccc(C(=O)NNc2ncnc3c2cnn3-c2ccc(C)cc2C)c1	0.0%
COC(=O)C1=C(C)NC(=O)C1(NC(=O)c1ccccc1C)C(F)(F)F (stereo unspecified)	1.5%
COc1cc(NC(=O)CN(C)S(=O)(=O)c2ccc3[nH]c4c(c3c2)CCCC4)cc(OC)c1OC	1.5%
CCc1nc2cc(C(=O)N(C)C3CCOC3)cc(NC(=O)c3ccccc3OC)c2n1C (stereo unspecified)	0.1%
CCOC(=O)c1c(S(=O)(=O)N2CCCC(C(=O)N3CCN(c4ccccc4)CC3)C2)c(C)n(C)c1C (stereo unspecified)	1.4%
CCc1cccc(NC(=O)c2ccc3c(=O)n4nc(Nc5ccccc5OC)sc4nc3c2)c1	8.7%
COc1ccc(-c2cnc(C)o2)cc1S(=O)(=O)Nc1ccc(C)c(F)c1	5.2%
Cc1ccc(N2C(=O)CCSC23C(=O)N(Cc2ccccc2)c2ccccc23)cc1F (stereo unspecified)	4.0%
Cc1cc(NC(=O)CCS(=O)(=O)c2cc(Br)cc3c2N(C(=O)C2CC2)CC3)ccc1Br	4.6%
COC(=O)C1CCCCN1Cc1ccc2c(c1)CN(C(=O)c1ccc(F)cc1)CCO2 (stereo unspecified)	1.5%
Cc1ccccc1CSc1cn(CCNC(=O)c2cccs2)c2ccccc12	22.3%
Cc1ccc(S(=O)(=O)N2CCCc3cc(NC(=O)c4ccc(C(F)(F)F)cc4)ccc32)cc1	-0.4%
O=C(CSc1ncc(S(=O)(=O)c2ccc(Br)cc2)c(=O)[nH]1)NCc1ccc(Cl)cc1	-0.6%
CC(C)(C)c1ccc(Cn2c(Cc3ccccc3)nc3ccccc32)cc1	17.7%
CCOc1ccc(-n2c(=O)c3c4c(sc3n(CC(=O)NC(C)CC)c2=O)CCC4)cc1 (stereo unspecified)	2.2%
Cc1cc2c(n1-c1ccc(C(=O)NCc3cccc(Br)c3)cc1)CCC(C)C2 (stereo unspecified)	0.1%
COc1ccc(-c2nc(CNC(=O)NC3CCCCC3)c(C)o2)cc1	-0.2%
CC(=O)NC(c1ccco1)c1cc(Cl)c2cccnc2c1O (stereo unspecified)	4.1%
Cc1ccc(C)c(N(C)C(=O)c2cc3c(s2)-c2ccccc2OC3)c1	2.1%
Cc1cccc(C(=O)Nc2nnc(S(=O)(=O)N3CCCc4ccccc43)s2)c1	0.1%
CCc1cccc(NC(=O)CN2C(=O)COc3ccc(S(=O)(=O)N4CCC(C)CC4)cc32)c1	-0.6%
O=C(NCCCN1CCN(c2ccccc2F)CC1)c1ccc2nc(Cc3ccccc3)oc2c1	-0.4%
CCOc1ccc(NC(=O)c2c(NCc3ccc(C)o3)sc3c2CCCCC3)cc1	1.5%
O=C(NCCc1ccccc1)c1ccc2c(c1)CCN2S(=O)(=O)c1ccc(Br)cc1	4.0%
Cc1cccc(NC(=O)C(=O)NCC(c2ccc3c(c2)OCO3)N2CCN(c3ccccc3)CC2)c1 (stereo unspecified)	-0.5%
CCN(c1ccccc1)S(=O)(=O)c1ccc(NC(=O)c2cc(=O)c3cc(C)c(C)cc3o2)cc1	3.9%
COc1ccc(CNC(=O)c2cc3c(=O)n(Cc4ccco4)ccc3nc2C)cc1	0.4%
CCOc1ccc(N2CC(NC(=O)C3CC3)CC2=O)cc1 (stereo unspecified)	-0.6%
COc1cccc(S(=O)(=O)N2CCN(c3nc(-c4cccs4)nc4ccccc34)CC2)c1	1.4%
Nc1c(Cl)cc(C=O)cc1Cl	1.0%
CCc1nc(SCc2cc(=O)c3cc(F)ccc3[nH]2)n[nH]1	-1.2%
Cc1ccc(Nc2ncnc3c2nc2n3CCCC2)cc1F	-4.5%
CCn1c(=O)c2sccc2n2c(CCCC(=O)N3CCN(c4cc(C)ccc4C)CC3)nnc12	0.2%
COc1ccc(NC(=O)CCc2nnc3n(Cc4ccc(C)cc4)c(=O)c4ccccc4n23)cc1	0.8%
Cc1ccc2[nH]nc(C(=O)N3CCOc4ccc(CN5CCc6sccc6C5)cc4C3)c2c1	4.2%
CNS(=O)(=O)c1cn(CC(=O)N2CCN(c3cc(C)ccc3C)CC2)cc1S(=O)(=O)NC	2.2%
Cc1ccc(C(=O)OCc2cc(=O)n3nc(-c4cccs4)sc3n2)cc1	11.6%
CCOc1ccc(CCNC(=O)c2cc3c(-c4ccccc4F)nn(C)c3s2)cc1	2.4%
COc1cc(C(=O)Nc2nc3nc(-c4ccccc4)cc(=O)n3[nH]2)cc(OC)c1OC	-0.2%
CCc1ccccc1NC(=O)c1ccc2c(c1)CCCN2S(C)(=O)=O	3.7%
COc1ccc(OC)c(NC(=O)Cn2c(=O)oc3cc(S(=O)(=O)NCc4ccccc4)ccc32)c1	-1.1%
CCOc1ccc(S(=O)(=O)n2nc(C)c(S(=O)(=O)N3CCCCCC3)c2C)cc1	0.4%
COc1ccc(CNC(=O)Cn2nc(C)c3c(C)n(-c4ccccc4)nc3c2=O)cc1OC	1.4%
COCCN1Cc2cccc(C(=O)Nc3ccc(C(=O)OC)cc3)c2C1=O	-0.4%
COc1ccc(C(=O)N2CCC(c3ccncc3)CC2)cc1OC	-1.0%
CCCn1cc(S(=O)(=O)c2ccc(C)c(C)c2)c(=O)c2cc(F)c(N3CCCCC3)cc21	-0.4%

2 entries drawn at random from those above, as already listed:
SMILES	PINK1 expr mod
COCCN1Cc2cccc(C(=O)Nc3ccc(C(=O)OC)cc3)c2C1=O	-0.4%
CCOc1ccc(CCNC(=O)c2cc3c(-c4ccccc4F)nn(C)c3s2)cc1	2.4%

Going on with the list.
SMILES	PINK1 expr mod
COc1ccc(C(=O)Nc2cc(C(C)C)c(O)c(S(=O)(=O)c3ccc(Cl)cc3)c2C)cc1	2.1%
CCN(c1ccccc1)c1ncnc2c1cnn2-c1ccc(OC)cc1	2.6%
Cc1nn(Cc2noc(C(=O)NC(C)c3ccccc3)n2)c(C)c1Br (stereo unspecified)	-3.4%
COc1ccc(CCNC(=O)c2cc3c(-c4ccccc4F)nn(C)c3s2)c(OC)c1	7.4%
CCCCOc1ccc(C(=O)N(Cc2nc(-c3ccc(Cl)cc3)no2)C(C)C)cc1	5.3%
COc1ccc(CCNC(=O)c2nn(-c3ccc(C)cc3)c(=O)c3c2c2ccccc2n3C)cc1OC	0.5%
COc1ccc(OC)c(-c2cc(Cl)c3c(c2)CC(CNC(=O)c2cnn4cccnc24)O3)c1 (stereo unspecified)	0.1%
Cc1nc2nc(SCC(=O)NCCc3ccccc3)nn2c(C)c1Cc1c(F)cccc1Cl	0.5%

Screening data (PubChem)

Not all compounds are listed; the hit share may differ from the screen's.
